LASV entry inh = qHTS for Inhibitors of binding or entry into cells for Lassa Virus; Lassa virus pseudotyped entry inhibition, cell-based qHTS; control for the full effect not named in the record; many of its hits are not listed in these tables; Potency, µM (top dose mostly 49.2 µM), inactives show at the top dose activity change, negative = inhibition, usual class: inhibitors; 4.1% of 18,000 active; AID 720533, 2013; active = well fitted inhibition curve with a large enough effect; inconclusive = small, poorly fitted or top-dose-only effect; inactive = no such curve, though single readings can be large or run the other way; tested in HEK293 cells; note: luciferase read-out
Marburg entry = qHTS for Inhibitors of binding or entry into cells for Marburg Virus; Marburg virus pseudotype entry/binding inhibition, cell-based; control for the full effect not named in the record; many of its hits are not listed in these tables; Potency, µM (highest dose often 49.2 µM), for the others: top-dose activity change, negative = inhibition, actives largely listed as inhibitors; 6.5% of 18,000 active; active means well fitted inhibition curve with a large enough effect; inconclusive means small, poorly fitted or top-dose-only effect; inactive means no such curve, though single readings can be large or run the other way; tested in HEK293 cells; note: luciferase read-out
An asterisk follows results filed as active; ? = inconclusive; nt = not tested or not shown; & = joins results of further samples; ! = not active in a repeat; [ ] = remark or other dose. % is set by controls: 0 for no effect and ±100 for the full control effect; potency is the fitted concentration of half-maximal effect. These rows are one share of the data, so the mix of outcomes need not match the whole.

SMILES	Marburg entry	LASV entry inh
CCCCc1ncc(/C=C(\Cc2cccs2)C(=O)O)n1Cc1ccc(C(=O)O)cc1	3%	-2%
CN1[C@@H](CC(=O)c2ccccc2)CCC[C@H]1C[C@H](O)c1ccccc1	28µM*	?
O=C(Cc1ccc(Cl)cc1)c1c(O)cc(O)cc1O	9%	14%
O=c1ccc2cc(O[C@H]3OC(CO)C(O)C(O)C3O)c(O)cc2o1 (stereo not given in full)	23%&8%	12%&4%
CC(=O)SCC(CC(=O)c1ccc(C)cc1)C(=O)O (stereo not given)	-5%	-19%
CC(C)CC1C(=O)N(Cc2cn(CCC3OCCCO3)nn2)CCS(=O)(=O)N1Cc1ccc(-c2ccc(Cl)c(Cl)c2)cc1 (stereo not given)	?	?
CCCCCCN1C[C@@H](O)[C@H](n2cc(-c3ccc(F)cc3)nn2)C[C@H]1c1ccccc1	?	-27%
C=C1[C@@H]2C[C@@]3([C@H]1O)[C@H]1C[C@@H]4[C@@]5(C)CC[C@H](O)[C@]4([C@H]1N(CC)C5)[C@H]3C[C@H]2O	-3%[17.8 µM]	-10%[17.8 µM]
CCN1C[C@@]2(COC)CC[C@H](O)[C@@]34[C@@H]2C[C@@H]([C@@H]13)[C@]1(O)C[C@@H](OC)C2C[C@H]4[C@H]1[C@H]2OC(C)=O	-2%[17.8 µM]	-9%[17.8 µM]
O=C1N[C@@H](Cc2c[nH]c3ccccc23)C(=O)N[C@H]1Cc1c[nH]c2ccccc12	3%	6%
Oc1ccc2c(c1-c1c(O)c(Br)cc3c1CCCC3)CCCC2	-13%	31%[activator]
COC(=O)CCN1CCSCCS1(=O)=O	8%	-6%
CC/C=C\C/C=C\C/C=C\C/C=C\C/C=C\CCCCCC(=O)O	14%&23%	3%&-12%
CC(C)CN(C[C@@H](OP(=O)(O)O)[C@H](Cc1ccccc1)NC(=O)O[C@H]1CCOC1)S(=O)(=O)c1ccc(N)cc1	0%	0%
Cc1c(C(=O)N(C)C2CCOC2)sc2ncnc(NCC3(c4ccccc4)CCOCC3)c12 (stereo not given)	-1%	-10%
Cc1ncc2c(c1CNS(=O)(=O)N(C)C)CCN(C(=O)/C=C/c1ccccc1Cl)C2	-9%	6%
CC(CCc1ccc(O)cc1)NCCc1ccc(O)c(O)c1 (stereo not given)	?	?
C[C@@H](NS(=O)(=O)c1cccc(Cl)c1F)[C@H](O)c1ccccc1	21%	-9%
CCCCCCCCCCCCCCCC(=O)OC[C@@H](NC(=O)C(Cl)Cl)[C@H](O)c1ccc([N+](=O)[O-])cc1	5%	-7%
CC(C)(CNC(=O)c1cnn(-c2ncc3c(n2)-c2ccccc2CCC3)c1C1CC1)N1CCOCC1	1%	-10%
N[C@H](Cn1ccc(=O)c(O)c1)C(=O)O	4%	-11%
CCCCC1CN(CCNC(=O)c2ccccn2)Cc2ccccc2O1 (stereo not given)	-1%	-1%
COc1ccc(OC)c(CN2CCCC(c3nc(-c4ccncc4)ncc3-c3ccccc3C)C2)c1 (stereo not given)	-10%	1%
COc1c(C=O)c(O)cc2c1C(=O)c1ccccc1C2=O	8%&8%	-5%&-9%
CCOC(=O)OC[C@H]1O[C@H](c2ccccc2)C=C[C@H]1OC(=O)OCC	42%[activator][8.59 µM]	10%[8.59 µM]
COc1ccc(CN2CCC(n3cc(C(=O)N4CCCC4)nn3)CC2)c(OC)c1C	-19%	-7%
O=C(O)[C@H]1CCCNC1	1%	0%
Cn1ccc2c(N(c3ccccc3)C3CCCCC3)cc3c(c21)C1CCC3O1 (stereo not given)	13%	?
C[C@@]12CCC(=O)C[C@@H]1CC(=O)[C@H]1[C@H]3CCC[C@]3(C)C(=O)C[C@@H]12 (tested in a mixture with another compound)	4%[17.8 µM]	-7%[17.8 µM]
O=C(c1ccc2c(c1)OCO2)N1CCCCC1	6%&7%	1%&3%

Entries above that contain an aryl methoxy group (3):
SMILES	Marburg entry	LASV entry inh
COc1ccc(OC)c(CN2CCCC(c3nc(-c4ccncc4)ncc3-c3ccccc3C)C2)c1 (stereo not given)	-10%	1%
COc1c(C=O)c(O)cc2c1C(=O)c1ccccc1C2=O	8%&8%	-5%&-9%
COc1ccc(CN2CCC(n3cc(C(=O)N4CCCC4)nn3)CC2)c(OC)c1C	-19%	-7%

Fetched one by one from the entries so far (2):
SMILES	Marburg entry	LASV entry inh
CCCCc1ncc(/C=C(\Cc2cccs2)C(=O)O)n1Cc1ccc(C(=O)O)cc1	3%	-2%
CC(CCc1ccc(O)cc1)NCCc1ccc(O)c(O)c1 (stereo not given)	?	?

The list goes on:
SMILES	Marburg entry	LASV entry inh
COCOc1cc(OC)ccc1C(=O)C=Cc1ccc2c(c1)OCO2	?	-30%&-28%[8.59 µM]
COc1ccc(OC)c(C(=O)N(Cc2cc3cccc(C)c3nc2N2CCC(O)CC2)C2CC2)c1	8%	-27%
NC(=O)c1cc(-c2ccc(F)cc2)cc(-c2ccncc2)c1N	?	-26%
COC(=O)C(C(=O)OC)[C@@H]1O[C@@]23COC=C[C@]2(C)[C@@H]3c2ccccc21	?	3%[8.59 µM]
C[C@@H](NCCCc1cccc(C(F)(F)F)c1)c1cccc2ccccc12	6.3µM*	16µM*
NC(N)=NC(N)=Nc1ccccc1	-10%&-1%&-5%	-14%&-4%&-9%
CC(C)/C(O)=C1/C(=O)OC(c2ccoc2)[C@@]2(C)C(O)C(O)[C@@]34OC5(C)OC67CC(C)(C(O)[C@@]6(O)C(O)[C@@]3(O5)C12)C(CC(=O)O)[C@@]74C (stereo not given in full)	-3%	-3%
O=C1NC[C@H](c2ccccc2)N1	18%	2%
COC(=O)CCC(C)C1CCC2C3C(O)C[C@@H]4CC(O)CC[C@@]4(C)C3CC(O)[C@]12C (stereo not given in full)	-12%	-21%
Cc1cc2oc(=O)cc(-c3ccccc3)c2c(C)c1-c1ccc(CO)cc1	-11%	11µM*
COc1cc(=O)n2c(c1C(=O)N(C)Cc1nccs1)CCN(Cc1ccc(F)c(F)c1)CC2	0%	-6%
C=Cc1c(C)c2cc3nc(cc4[nH]c(cc5nc(cc1[nH]2)C(C)=C5CCC(=O)OC)c(CCC(=O)O)c4C)[C@@]1(C)C3=CC=C(C(=O)OC)[C@H]1C(=O)OC	13%	7%[17.8 µM]
CCCCCC#CCC#CCC#CCC#CCCCC(=O)O	-1%&-2%&-20%	0%&-2%&-10%
COc1ccc(NC(=O)C[C@H]2C(=O)N(C3CCCCC3)C[C@@H]2CSC)cc1	27%	?
COc1ccc(C2/C=C\CN(C(=O)OCC3c4ccccc4-c4ccccc43)CC(=O)N2Cc2cccc(F)c2)cc1 (stereo not given)	-25%	-25%
COc1ccc2c(c1)CCc1cnc(-n3ncc(C(=O)N(C)CCc4ccccn4)c3C)nc1-2	3%	?
CCN1C[C@]2(COC)CC[C@H](O)[C@@]34[C@@H]5C[C@H]6[C@@H](OC)[C@H]5[C@](O)(C[C@@H]6OC)[C@@](O)([C@@H](OC)[C@H]23)[C@@H]14	20%[17.8 µM]	9%[17.8 µM]
CCOC(=O)C1=C(c2ccccc2)c2ccccc2OC1C(=O)OCC (stereo not given)	-18%	-11%
O=C(O)[C@H]1CC=C[C@H]2CCN(Cc3ccc(Cl)c(Cl)c3)C(=O)[C@@H]12	9%	-6%
CN(C)c1nc(NC2CCC(NC(=O)c3ccc(F)c(F)c3)CC2)nc2ccccc12 (stereo not given)	2.8µM*	16µM*
C#CCNC(=O)[C@H]1C=C(OC)C(=O)C[C@H]2c3ccccc3C[C@]12C	8%[8.59 µM]	1%[8.59 µM]
CS(=O)(=O)Nc1cccc(-c2nccc(-n3ccnc3)n2)c1	-20%	3%
CN1CCCC(n2nc(Cc3ccc(Cl)cc3)c3ccccc3c2=O)CC1 (stereo not given)	7.9µM*	?
O=S1(=O)CC(N2CCN(CCO)CC2)CN1Cc1ccccc1 (stereo not given)	7%	20%
CC1=C[C@@H](COc2ccccc2)O[C@@]2(C1)C(=O)N(Cc1ccccc1)c1ccccc12	?	7%[8.59 µM]
OC[C@H]1OC(O)[C@H](O)[C@@H](O)[C@@H]1O (stereo not given in full)	-2%	-1%
COc1ccc(O)c(CN2CCC3(CCC(CNC(=O)c4ccccc4)O3)CC2)c1 (stereo not given)	?	-9%
CC1(OC(=O)c2cccs2)C(=O)C=C2C=C(c3ccsc3)OC=C2C1=O (stereo not given)	-18%	-7%
NCCc1c[nH]c2ccc(O)cc12	-10%	-11%
C[C@@]12CC[C@@H]3c4ccc(O)cc4CC[C@H]3[C@H]1C[C@@H](O)[C@H]2O	-9%[17.8 µM]	6%[17.8 µM]
CSCC[C@H](NC(=O)[C@@H](NC(=O)[C@H](CCC(=O)O)NC(=O)[C@H](CCSC)NC(=O)[C@H](CC(N)=O)NC(=O)[C@H](CCC(=O)O)NC(=O)[C@H](CC(N)=O)NC(=O)[C@H](CO)NC(=O)[C@H](C)N)[C@@H](C)O)C(=O)O	-17%	1%
O=C(O)Cn1c(C(=O)Nc2nc(-c3ccccc3Cl)cs2)cc2ccccc21	-11%	-6%
COc1cc2c(cc1O)C(Cc1ccc(O)cc1)[N+](C)(C)CC2 (stereo not given)	2%	5%
O=C([C@@H]1C[C@@H](Sc2nc3ccccc3[nH]2)CN1Cc1ccc(Cl)cc1)N1CCN(c2ccccc2F)CC1	?	?
N#Cc1ccc2c(-c3ccnc(NC4CC4)n3)c(-c3ccc(F)cc3)nn2c1	?	nt
COc1ccc2[nH]cc(CCNC(=O)C3CC3)c2c1	6%	-1%
Cc1cnc(C)c(-c2cc(F)cc3c2OC(CNC(=O)Cc2c(C)noc2C)C3)n1 (stereo not given)	7%	-10%
CC(CSC(=O)c1ccccc1)C(=O)N1C[C@@H](Sc2ccccc2)C[C@H]1C(=O)O (stereo not given in full)	15%	-19%
Cc1c(C(=O)NCC(C)(C)N2CCOCC2)cnn1-c1nccc(-c2cccs2)n1	27%	-21%
CCCNC(=O)N1C2=NC(C(=O)OC)=C(C(=O)OC)[C@@H]3N(C)c4ccccc4[C@]23C[C@H]1C(=O)OC	7%[8.59 µM]	-6%[8.59 µM]
CCCCCCCCCCCCCCCCCC(=O)OCCO	15%	23%
C[C@]12CCC(=O)C=C1[C@@H]1C[C@@H]1[C@H]1[C@@H]3[C@@H]4C[C@@H]4[C@@]4(CCC(=O)O4)[C@@]3(C)CC[C@@H]12	-11%	-20%
CCC1C2CC3C4N(C)c5ccccc5[C@]45CC(C2C5O)N3C1O (stereo not given in full)	?	?
CC(=O)ON(C(C)=O)S(=O)(=O)c1ccc(Cl)cc1	-13%	-2%
C#CCCCON=C1C[C@@H](O)[C@H](O)[C@H]2[C@@H]3C(=O)N(c4ccc(F)cc4F)C(=O)[C@@H]3CC[C@H]12	-6%[8.59 µM]	2%[8.59 µM]
COCc1ccc(CN2CCOc3c(cc(-c4cc(C)c5cccc(OC)c5n4)cc3OC)C2)o1	?	?
CC(C)(C)c1cc(O)ccc1O	13µM*!	14µM*!
Cc1cccc(C)c1NC(=O)CN1CCN(CCCC(c2ccc(F)cc2)c2ccc(F)cc2)CC1	-21%[17.8 µM]	-24%[17.8 µM]
O=C1CC(c2ccc3c(c2)OCO3)c2cc(O)ccc2O1 (stereo not given)	-16%	-15%
CCN(C)c1cc2c(c3c1ccn3C)C1CCC2C1 (stereo not given)	13%	18%
COCCN1CCN(C(=O)c2cnn(-c3nccc(-c4ccccc4F)n3)c2-c2ccco2)CC1	-1%	29%
N=C(N)SCCc1ccc(OCc2ccc([N+](=O)[O-])cc2)cc1	14µM*	-15%
C[C@]12CC[C@H]3[C@@H](CCC4=CC(=O)CC[C@@]43C)[C@@H]1CC[C@@H]2OC(=O)CCc1ccccc1	-16%[107 µM]	-22%[107 µM]
COc1ccccc1C1CC(=O)Oc2cc(C)c(Cl)c(C)c21 (stereo not given)	7%	-13%
COc1ccccc1C(=O)N1CCOc2ccc(CN3CCN(Cc4ccccn4)CC3)cc2C1	-28%	-8%
Cn1cc(C2=C(c3cn(C4CCN(Cc5ccccn5)CC4)c4ccccc34)C(=O)NC2=O)c2ccccc21	7.1µM*	?
COC(=O)[C@@H]1CC23C(=NC(c4ccc([N+](=O)[O-])cc4)=C(C(F)(F)F)[C@@H]2N(C)c2ccccc23)N1C(C)=O (stereo not given in full)	8%[8.59 µM]	-22%[8.59 µM]
O=C(Nc1cccc(C(F)(F)F)c1)OCCN1CCN(Cc2ccccc2)CCC1=O	-4%&17%	?
N#Cc1ccc2c(c1)C[C@]1(CCCCN3C(=O)c4ccccc4C3=O)OC3=C(C(=O)OC4(CCCCC4)C3)[C@H]2O1	10%[8.59 µM]	3%[8.59 µM]
Cc1ccc([C@H]2C[C@H](O)[C@@H](n3cc(COC(=O)c4ccccc4)nn3)CN2C(=O)c2cccs2)cc1	25%	7%

New compounds follow
SMILES	Marburg entry	LASV entry inh
CC(=O)Nc1cccc(C#Cc2cncnc2Nc2ccc(OCc3cccc(F)c3)c(Cl)c2)n1	?	nt
CCCCCCCCCCCCCCCCn1cc[n+](Cc2ccccc2)c1C	7.1µM*	11µM*
COc1cc2c(cc1OC)C1N(CC2)C(=O)CCC12C(=O)CCCC2=O (stereo not given)	11%	?
CCCCN(CCCC)Cc1cc(=O)oc2cc(C)cc(C)c12	-25%	6%

Screens deposited in PubChem by National Center for Advancing Translational Sciences (NCATS).
